VDR inh = vitamin D3 receptor (human) inhibition; P11473; VDR-SRC2-3 peptide fluorescence polarization, 2 h; Potency, µM, for inactives: max response, negative = inhibition, usual class: inhibitors; 400,000 tested, 0.93% active; AID 504847; active = well fitted inhibition curve with a large enough effect; inconclusive = small, poorly fitted or top-dose-only effect, or another doubt; inactive = no such curve, though single readings can be large or run the other way; note: series mostly up to about 120 µM
Target sequence (P11473 whole entry, looked up): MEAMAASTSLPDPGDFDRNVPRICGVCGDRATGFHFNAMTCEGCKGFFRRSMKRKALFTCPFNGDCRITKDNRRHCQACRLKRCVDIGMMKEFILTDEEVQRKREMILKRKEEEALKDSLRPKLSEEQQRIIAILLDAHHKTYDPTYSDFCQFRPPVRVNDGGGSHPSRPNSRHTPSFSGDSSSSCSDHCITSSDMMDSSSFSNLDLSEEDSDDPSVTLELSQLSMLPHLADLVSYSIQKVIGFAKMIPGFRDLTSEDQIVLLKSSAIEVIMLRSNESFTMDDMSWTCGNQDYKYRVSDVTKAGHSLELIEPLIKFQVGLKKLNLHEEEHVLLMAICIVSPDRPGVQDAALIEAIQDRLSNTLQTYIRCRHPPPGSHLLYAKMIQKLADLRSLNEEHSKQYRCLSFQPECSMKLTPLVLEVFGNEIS
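Fluorescence polarization assay measuring small-molecule disruption of VDR binding to the coregulator peptide SRC2-3. Compounds were pin-transferred (23 nl) into the reagent mix and incubated 2 h at room temperature before reading.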
* hit, by the source's call; & = joins results of further samples. % is set by controls: 0 for no effect and ±100 for the full control effect; potency is the fitted concentration of half-maximal effect.

Results for CC(=O)N1CCc2cc(S(=O)(=O)CCC(=O)N3CCN(c4cc(C)ccc4C)CC3)ccc21 ?
VDR inh: -3%

Results for COc1ccc(OC)c(N(CC(=O)NC2CCCCCC2)S(=O)(=O)c2ccc(C)cc2)c1 ?
VDR inh: -8%

Results for O=S(=O)(Cc1ccccc1)NCCc1cccc(Cl)c1 ?
VDR inh: 3%

How did CCn1nnc(NC(=O)c2cc3ccccc3o2)n1 do in these assays?
VDR inh: -4%

What do the screens show for `CCc1cc(=O)oc2c(C)c(OC(C)C(=O)NCC3CCC(C(=O)O)CC3)ccc12` (configuration not stated)?
VDR inh: 2%

What do the screens show for `CCc1cccc(NC(=O)CCNC(=O)Cn2ccc3ccccc3c2=O)c1`?
VDR inh: 15%

Results for Cc1csc2nc(-c3cccc(NC(=O)c4c(F)cccc4F)c3)cn12 ?
VDR inh: -1%

Results for COc1ccccc1OCCn1c(C(C)O)nc2ccccc21 (configuration not stated) ?
VDR inh: -6%

How did CC(C)(C)NC(=O)CC1C[C@H](C(=O)N2CCOCC2)[C@@]2(CCC3CCCC3)c3[nH]c4ccccc4c3CCN2C1=O (some centres not stated) do in these assays?
VDR inh: -16%

Results for CN1CCCN(C(=O)c2cc(-c3ccc(Cl)c(Cl)c3Cl)nc3ccccc23)CC1 ?
VDR inh: 8%

What do the screens show for `COC(=O)c1ccc(NC(=O)c2cc(Cl)ccc2OC)cc1`?
VDR inh: -11%

How did CC(C)Cn1c(=O)c2ccccc2n2c(CCC(=O)NC(C)c3ccccc3)nnc12 (configuration not stated) do in these assays?
VDR inh: 3%

Results for Cc1ccc2onc(CC(=O)Nc3cccc(C(F)(F)F)c3)c2c1 ?
VDR inh: 13%

Results for COc1ccc(N(CC(=O)NC2CCCC2)C(=O)c2csnn2)cc1 ?
VDR inh: 11%

What do the screens show for `COc1cc(CNCCSc2nnnn2C)ccc1OCc1ccc(C)cc1`?
VDR inh: -8%

What do the screens show for `O=C1/C(=C/c2cccnc2)SC(=S)N1CC1CCCO1` (configuration not stated)?
VDR inh: -7%

Results for Cc1ccc(NC(=S)NCc2ccc3[nH]c4c(c3c2)CCCC4)cc1 ?
VDR inh: -2%

Results for CCOC(=O)c1c(C)[nH]c(C(=O)NCCc2ccc(OC)c(OC)c2)c1C ?
VDR inh: -1%

How did O=C1c2ccccc2NC2CCCCC12 (configuration not stated) do in these assays?
VDR inh: 6%

How did Cc1ccc(C(=O)CC2(O)C(=O)Nc3ccccc32)s1 (configuration not stated) do in these assays?
VDR inh: -5%

How did Cc1cccn2c(=O)c(C(=O)NCc3cccc(F)c3)cnc12 do in these assays?
VDR inh: -9%

How did COc1ccc(-c2cc3ccccc3oc2=O)cc1NC(=O)c1cccnc1 do in these assays?
VDR inh: 2%

How did COc1ccc2cc(CCNC(=O)c3ccc(Br)o3)c(=O)[nH]c2c1 do in these assays?
VDR inh: -2%

Results for Cc1cc(NC(=O)c2cccc(S(=O)(=O)N3CCOCC3)c2)c2ccccc2n1 ?
VDR inh: 3%

Results for O=C(O)c1ccc(/C=C2\SC(=S)N(NC(=O)c3ccccc3)C2=O)cc1 ?
VDR inh: -23%

What do the screens show for `Cc1cc(C)n(CC(=O)n2c3ccccc3c3ccccc32)n1`?
VDR inh: 8%

Results for CS(=O)(=O)Nc1cccc(C2=NN(S(=O)(=O)c3ccccc3)C(c3cccs3)C2)c1 (configuration not stated) ?
VDR inh: 10%

How did CC1CCCCN1c1nc2nonc2nc1N1CCCCC1C (configuration not stated) do in these assays?
VDR inh: 8%

What do the screens show for `COC(=O)c1cc(=O)n(C2CC2)c(=NC2CC2)s1`?
VDR inh: -16%

Results for Cc1ccc(N2CC(C(=O)OCc3nnc(-c4ccccc4)o3)CC2=O)cc1 (configuration not stated) ?
VDR inh: 3%

How did CC1CCCCN1S(=O)(=O)c1ccccc1[N+](=O)[O-] (configuration not stated) do in these assays?
VDR inh: -14%

How did CCOC(=O)/C(C#N)=C/Nc1cc(F)ccc1C do in these assays?
VDR inh: -3%

How did COc1ccc(NC(=O)Nc2ccc(OC)c(OC)c2)c([N+](=O)[O-])c1 do in these assays?
VDR inh: -1%

What do the screens show for `O=C(O)CCn1cc(/C=C2\SC(=S)NC2=O)c(-c2ccccc2)n1`?
VDR inh: 8%

How did CCOc1ccc(-c2nnc3sc(-c4ccccc4OC)nn23)cc1 do in these assays?
VDR inh: 1%

What do the screens show for `CCCCSc1nnc([C@@H]2CCCN2C(=O)OC(C)(C)C)o1`?
VDR inh: 4%

Results for O=C(O)CCC(=O)Nc1ccc(OCC(=O)O)cc1 ?
VDR inh: 26%

How did COc1ccc(CCN=C(N)NS(=O)(=O)c2ccc(C)cc2)cc1 do in these assays?
VDR inh: 0%

How did O=C(CCc1nc2ccccc2[nH]1)Nc1ccccc1 do in these assays?
VDR inh: -16%

What do the screens show for `COC(=O)c1ccc(COC(=O)c2ccc(SC)cc2OC)cc1`?
VDR inh: inconclusive

What do the screens show for `CCOc1ccccc1NC(=O)c1ccccc1-c1nc(-c2ccccc2)no1`?
VDR inh: 11%

Results for O=C(N/N=C/c1c[nH]c2ccc(Br)cc12)C1CC1 ?
VDR inh: -16%

What do the screens show for `Cc1nnc(SCC(=O)N2CCN(S(=O)(=O)c3ccc(Cl)cc3)CC2)[nH]c1=O`?
VDR inh: -8%

How did O=[N+]([O-])c1ccc(N2CCSCC2)cc1O do in these assays?
VDR inh: -7%

How did Cc1cc(C)nc(SCc2nnc(SCC(=O)Nc3cc(C(F)(F)F)ccc3Cl)o2)n1 do in these assays?
VDR inh: -3%

How did CCOC(=O)c1cc(-c2ccccc2)n(CCC(=O)NCCc2ccc(OC)c(OC)c2)c1C do in these assays?
VDR inh: 1%

Results for Cc1cc(F)ccc1NS(=O)(=O)c1c(C)nc2scc(C)n2c1=O ?
VDR inh: -4%&-2%

What do the screens show for `Cc1ccc(OCCCSc2n[nH]c(N)n2)cc1`?
VDR inh: -8%

Results for C#CCOc1ccc(C2C(C(=O)OC)=C(C)NC3=C2C(=O)c2ccccc23)cc1OCC (configuration not stated) ?
VDR inh: -4%

What do the screens show for `CCOc1ccc(NC(=O)CN2C(=O)C3(SCC(=O)N3c3ccc(F)cc3)c3ccccc32)cc1` (configuration not stated)?
VDR inh: 20%

How did O=C(c1ccco1)N1CCN(C(=O)c2ccc(CS(=O)c3cccc(Cl)c3)o2)CC1 (configuration not stated) do in these assays?
VDR inh: -17%

What do the screens show for `N#CCCN(C(=O)COC(=O)CCN=C1NS(=O)(=O)c2ccccc21)c1ccc(F)cc1`?
VDR inh: -6%

Results for CCCc1cc(NC(=O)COC(=O)c2ccc(O)cc2O)n(-c2ccccc2)n1 ?
VDR inh: -21%

What do the screens show for `CC1CC(=O)N(CC(=O)NC2CCCCC2)c2ccccc2S1` (configuration not stated)?
VDR inh: -25%

Results for CC(=O)c1ccc(NC(=S)N2CCN(S(=O)(=O)c3ccc(F)cc3)CC2)cc1 ?
VDR inh: 13%

What do the screens show for `CCC1CCCCN1c1ccc([N+](=O)[O-])cc1/C=N/NC(=O)Cn1c2ccccc2c(=O)c2ccccc21` (configuration not stated)?
VDR inh: -7%

Results for Cc1ccc(CNC(=O)CCCN2C(=O)CCn3nc(-c4cn(C)c5ccccc45)cc32)cc1 ?
VDR inh: -10%

Results for O=C(Cc1ccccc1)NNC(=O)c1ccc(NC(=O)c2ccccc2)cc1 ?
VDR inh: 2%

What do the screens show for `N/C(=N\OC(=O)Nc1ccccc1)c1ncc(C(F)(F)F)cc1Cl`?
VDR inh: 3%

What do the screens show for `CN(C)c1[nH]c(=O)c(C#N)c2c1CCN2Cc1ccccc1`?
VDR inh: 5%

What do the screens show for `O=C(O)CN1C(=O)/C(=C\c2cc(Br)ccc2OCc2ccccc2F)SC1=S`?
VDR inh: inconclusive

Results for CN(c1cccc(NC(=O)Cc2ccccc2)c1)S(C)(=O)=O ?
VDR inh: -4%

How did O=C1CCN(Cc2ccc([N+](=O)[O-])cc2)CCN1[C@H](CO)Cc1ccccc1 do in these assays?
VDR inh: 11%

What do the screens show for `CCOc1ccc(-c2nc(C#N)c(N3CCN(C)CC3)o2)cc1`?
VDR inh: 6%

What do the screens show for `CC(C)(C)c1ccc(C(=O)N2CCC(=O)N(C(COCc3ccccc3)Cc3ccccc3)CC2)cc1` (configuration not stated)?
VDR inh: -9%

How did CCOc1ccc2nc(N=NC3=C(O)CC(C)(C)CC3=O)sc2c1 do in these assays?
VDR inh: -17%

How did CN(C)c1ccc(CN2CCC(C(N)=O)CC2)cc1 do in these assays?
VDR inh: -10%

What do the screens show for `COc1cc(/C=C/C(=O)OCc2csc(CC(=O)Nc3ccc(C)cc3)n2)ccc1OCC#N`?
VDR inh: 25%

How did O=C(O)COCC(=O)Nc1ccc(-n2cnnn2)cc1 do in these assays?
VDR inh: -21%

Results for O=C(CN1C(=O)c2ccccc2S1(=O)=O)NC1CCCCC1 ?
VDR inh: 14%

How did O=C(NCC(=O)N(Cc1cccs1)C(C(=O)NC1CCCC1)c1ccncc1)c1ccco1 (configuration not stated) do in these assays?
VDR inh: 6%

How did CCN(CC(=O)Nc1ccc(OC)cc1)C(=O)c1ccc2ccccc2c1 do in these assays?
VDR inh: -5%

How did CC(=O)Nc1ccc(NC(=O)CSc2nnc(-c3cccs3)n2C)cc1 do in these assays?
VDR inh: -11%

What do the screens show for `CCCN1CCN(C(=O)CCn2c(=O)c3cccn3c3cccnc32)CC1`?
VDR inh: 1%

Results for Cc1sc(NC(=O)c2cccs2)nc1-c1ccccc1 ?
VDR inh: 11%

What do the screens show for `CC(=O)Nc1ccc(-c2csc(NC(=O)CC(NC(C)=O)c3ccccc3)n2)cc1` (configuration not stated)?
VDR inh: 11%

What do the screens show for `O=C(O)c1ccccc1C(=O)c1ccc(N2CCOCC2)c([N+](=O)[O-])c1`?
VDR inh: 23%

What do the screens show for `O=C(c1cccc(Oc2ccc([N+](=O)[O-])cc2)c1)N1CCOCC1`?
VDR inh: -9%

What do the screens show for `COc1ccc(-c2cc(C(=O)NCc3ccccc3)no2)cc1OC`?
VDR inh: -2%

Results for COc1ccc2cc3c(N)nn(C(=O)c4cccc(F)c4)c3nc2c1 ?
VDR inh: 8%

What do the screens show for `Cc1ccc(CN2[C@@H](Cc3ccccc3)C(=O)CS2(=O)=O)cc1`?
VDR inh: -18%

How did C/C(=N\NC(=O)COc1ccc([N+](=O)[O-])cc1)c1ccco1 do in these assays?
VDR inh: -3%

How did CCCCn1nc2cc(C(=O)NCc3ccc(OC(F)(F)F)cc3)ccc2c1OC do in these assays?
VDR inh: -11%

How did CCOC(=O)C1CCCN(C(=O)C2CCN(c3nnc(C)c4c(C)n(-c5ccccc5)nc34)CC2)C1 (configuration not stated) do in these assays?
VDR inh: -4%

How did COc1ccc(-c2cc(C)no2)cc1S(=O)(=O)N1CCc2ccccc21 do in these assays?
VDR inh: 10%

What do the screens show for `CCOC(=O)C1Cc2c([nH]c3ccccc23)C(C)N1` (configuration not stated)?
VDR inh: 11%

How did Nc1c(C(=O)N2CCCCCC2)oc2ccccc12 do in these assays?
VDR inh: -8%

What do the screens show for `COc1ccc(OC)c(/C=N/NC(=O)CNC(=O)c2ccc(S(=O)(=O)N3CCOCC3)cc2)c1`?
VDR inh: -15%

How did Cc1cc(C(=O)NCc2ccccc2F)cs1 do in these assays?
VDR inh: -4%

What do the screens show for `COC(=O)Cc1c(C)c2ccc3c(c2oc1=O)CN(Cc1ccccc1Cl)CO3`?
VDR inh: 12%

Results for COc1ccc(CNC(=O)CSc2ncn[nH]2)cc1 ?
VDR inh: 3%

How did Cc1nn(Cc2ccccc2Cl)c(C)c1NC(=O)c1ccn(C)n1 do in these assays?
VDR inh: -2%

Results for CS(=O)(=O)N(CC(=O)NCCSc1ccccn1)c1ccc(F)cc1 ?
VDR inh: 10%

Results for O=S(=O)(NCCc1nc2ccccc2[nH]1)c1ccccc1 ?
VDR inh: -6%

Results for COc1ccc(Cl)c(NC(=O)Cn2nnc(-c3ccccc3N)n2)c1 ?
VDR inh: -14%

Results for CCN1CCN(C(=O)c2cn(CCOC)c(=O)c3c2c2ccccc2n3C)CC1 ?
VDR inh: -1%

What do the screens show for `N=C1c2ccccc2CN1NC(=O)CC12CC3CC(CC(C3)C1)C2`?
VDR inh: -1%

By substructure: those above with fluorine
Results for Cc1csc2nc(-c3cccc(NC(=O)c4c(F)cccc4F)c3)cn12 ?
VDR inh: -1%

Results for Cc1ccc2onc(CC(=O)Nc3cccc(C(F)(F)F)c3)c2c1 ?
VDR inh: 13%

How did Cc1cccn2c(=O)c(C(=O)NCc3cccc(F)c3)cnc12 do in these assays?
VDR inh: -9%

How did CCOC(=O)/C(C#N)=C/Nc1cc(F)ccc1C do in these assays?
VDR inh: -3%

How did Cc1cc(C)nc(SCc2nnc(SCC(=O)Nc3cc(C(F)(F)F)ccc3Cl)o2)n1 do in these assays?
VDR inh: -3%

Results for Cc1cc(F)ccc1NS(=O)(=O)c1c(C)nc2scc(C)n2c1=O ?
VDR inh: -4%&-2%

What do the screens show for `CCOc1ccc(NC(=O)CN2C(=O)C3(SCC(=O)N3c3ccc(F)cc3)c3ccccc32)cc1` (configuration not stated)?
VDR inh: 20%

What do the screens show for `N#CCCN(C(=O)COC(=O)CCN=C1NS(=O)(=O)c2ccccc21)c1ccc(F)cc1`?
VDR inh: -6%

Results for CC(=O)c1ccc(NC(=S)N2CCN(S(=O)(=O)c3ccc(F)cc3)CC2)cc1 ?
VDR inh: 13%

What do the screens show for `N/C(=N\OC(=O)Nc1ccccc1)c1ncc(C(F)(F)F)cc1Cl`?
VDR inh: 3%

What do the screens show for `O=C(O)CN1C(=O)/C(=C\c2cc(Br)ccc2OCc2ccccc2F)SC1=S`?
VDR inh: inconclusive

Results for COc1ccc2cc3c(N)nn(C(=O)c4cccc(F)c4)c3nc2c1 ?
VDR inh: 8%

How did CCCCn1nc2cc(C(=O)NCc3ccc(OC(F)(F)F)cc3)ccc2c1OC do in these assays?
VDR inh: -11%

How did Cc1cc(C(=O)NCc2ccccc2F)cs1 do in these assays?
VDR inh: -4%

Results for CS(=O)(=O)N(CC(=O)NCCSc1ccccn1)c1ccc(F)cc1 ?
VDR inh: 10%

Assay outcomes as filed in PubChem.

The list is partial; the hit share may differ from the screen's.
